# Source: PubChem BioAssay
# FGF22 binding: binders of human FGF22 protein, primary screen, FGF22 synaptogenesis inhibitor project, biophysical, thermal shift, single point; Fibroblast growth factor 22 (Homo sapiens), Q9HCT0; recombinant FGF22 thermal shift, SYPRO orange fluorescence; percent of sucrose octasulfate shift, DMSO zero; calls only at 9.99 µM; 1.5% of 340,000 active;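 active = melting point raised past a set limit in the mean and every replicate; three in four hits are not shown here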
# Target sequence (Q9HCT0 whole entry, looked up): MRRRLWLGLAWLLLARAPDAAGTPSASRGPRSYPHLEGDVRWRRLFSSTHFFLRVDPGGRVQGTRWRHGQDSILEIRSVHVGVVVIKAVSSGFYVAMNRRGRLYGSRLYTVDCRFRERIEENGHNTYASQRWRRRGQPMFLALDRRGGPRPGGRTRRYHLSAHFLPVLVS
# Calls only; i = inactive. An excerpt (hit frequency here may not be typical).
Molecule,FGF22 binding
C[C@@H]1CN([C@@H](C)CO)S(=O)(=O)c2ccc(C#C[C@@H](C)O)cc2O[C@@H]1CN(C)Cc1ccc(-c2ccccc2)cc1,i
C[C@H]1CN([C@@H](C)CO)C(=O)CCCn2cc(nn2)CO[C@H]1CN(C)S(=O)(=O)c1ccc(C#N)cc1,i
C/C=C/c1cnc2c(c1)C(=O)N([C@@H](C)CO)C[C@@H](C)[C@H](CN(C)C(=O)Nc1c(C)noc1C)O2,i
COc1cccc(-c2ccc3c(c2)O[C@H](CN(C)C(=O)c2ccccc2F)[C@@H](C)CN([C@@H](C)CO)S3(=O)=O)c1,i
C[C@@H]1CN([C@H](C)CO)C(=O)Cc2cc(NC(=O)CCCCCC(=O)Nc3ccccc3N)ccc2O[C@H]1CN(C)S(=O)(=O)c1cccs1,i
Cc1ccc(S(=O)(=O)NC2CCN(Cc3cccc(OCCO)c3)CC2)cc1,i
C/C=C/c1ccc([C@@H]2[C@H](C#N)N(c3ncc(CC)s3)[C@H]2CO)cc1,i
Cc1ccccc1S(=O)(=O)N[C@@H]1CC[C@@H](CCn2cc(Cc3ccccc3)nn2)O[C@H]1CO,i
Cc1ccc(S(=O)(=O)N(C)C[C@H]2Oc3cc(C4=CCCC4)ccc3S(=O)(=O)N([C@H](C)CO)C[C@@H]2C)cc1,i
CO[C@@H]1CN(C)C(=O)c2cc(NC(=O)CC(F)(F)F)ccc2OC[C@@H](C)N(C(=O)C2CCCC2)C[C@H]1C,i
C[C@@H]1CN([C@@H](C)CO)C(=O)c2cc(NC(=O)Nc3ccccc3)ccc2O[C@@H](C)CCCCO[C@H]1CN(C)S(=O)(=O)c1ccc(F)cc1,i
COc1ccc2c3c([nH]c2c1)[C@@H](CO)N(C(=O)NC(C)C)CC31CN(C(=O)C2CCCCC2)C1,i
Cc1ccc(S(=O)(=O)Nc2ccc3c(c2)C(=O)N([C@@H](C)CO)C[C@@H](C)[C@H](CN(C)C(=O)NC(C)C)OCCCC[C@@H](C)O3)cc1,i
C[C@@H]1CN([C@H](C)CO)S(=O)(=O)c2ccc(C3=CCCC3)cc2O[C@H]1CN(C)C(=O)CN(C)C,i
CC(C)NC(=O)Nc1ccc2c(c1)C(=O)N([C@H](C)CO)C[C@@H](C)[C@@H](CN(C)C(=O)NC1CCCCC1)OCCCC[C@H](C)O2,i
CO[C@@H]1CN(C)C(=O)c2cc(NC(=O)C3CC3)ccc2OC[C@H](C)N(C(=O)c2ccncc2)C[C@@H]1C,i
COC(=O)C[C@@H]1CC[C@@H]2[C@H](COc3ccc(NC(=O)c4cscn4)cc3C(=O)N2C)O1,i
CCN(C[C@H]1[C@@H](c2ccccc2)[C@H](CO)N1C(=O)COC)S(C)(=O)=O,i
C[C@@H]1CCCCO[C@@H](CN(C)C(=O)Nc2cccc3ccccc23)[C@H](C)CN([C@H](C)CO)C(=O)c2cc(NC(=O)CCCN(C)C)ccc2O1,i
C[C@@H]1CN([C@@H](C)CO)C(=O)c2cc(N(C)C)ccc2O[C@@H](C)CCCCO[C@@H]1CN(C)C(=O)Nc1cccc2ccccc12,i
C[C@@H]1CCCCO[C@H](CN(C)CC2CCCCC2)[C@@H](C)CN([C@@H](C)CO)C(=O)c2cc(NS(=O)(=O)c3cn(C)cn3)ccc2O1,i
COc1ccc(NC(=O)N(C)C[C@@H]2Oc3ccc(NS(=O)(=O)c4c(C)noc4C)cc3CC(=O)N([C@@H](C)CO)C[C@@H]2C)cc1,i
COc1ccc(S(=O)(=O)Nc2ccc3c(c2)C(=O)N([C@H](C)CO)C[C@@H](C)[C@@H](CN(C)C(=O)Nc2ccc(C(F)(F)F)cc2)O3)cc1,i
C[C@@H]1CCCCO[C@H](CN(C)CC2CCCCC2)[C@@H](C)CN([C@H](C)CO)C(=O)c2cc(NC(=O)Nc3ccccc3)ccc2O1,i
O=C(Nc1cc(F)ccc1F)N1CCCCN2[C@H](CO)[C@H](c3ccc(-c4ccncc4)cc3)[C@@H]2C1,i
OC[C@@H]1[C@H](c2ccc(Br)cc2)[C@@H]2CN(Cc3ccccn3)CCCCN12,i
C[C@H](CO)N1C[C@H](C)[C@H](CN(C)C)Oc2ccc(NC(=O)Nc3cccc4ccccc34)cc2C1=O,i
C[C@@H]1CCCCO[C@@H](CN(C)C(=O)CCC(F)(F)F)[C@@H](C)CN([C@@H](C)CO)C(=O)c2cc(NC(=O)c3ccccc3)ccc2O1,i
O=c1[nH]c(=O)c2ccccc2o1,i
Cc1noc(C)c1S(=O)(=O)N(C)C[C@H]1OCCCC[C@H](C)Oc2ccc(NC(=O)Nc3ccc(C(F)(F)F)cc3)cc2C(=O)N([C@H](C)CO)C[C@@H]1C,i

# 2 compounds drawn at random from those above, as already listed:
Molecule,FGF22 binding
COc1cccc(-c2ccc3c(c2)O[C@H](CN(C)C(=O)c2ccccc2F)[C@@H](C)CN([C@@H](C)CO)S3(=O)=O)c1,i
C[C@@H]1CN([C@H](C)CO)S(=O)(=O)c2ccc(C3=CCCC3)cc2O[C@H]1CN(C)C(=O)CN(C)C,i

# The listing picks up, starting 5 compounds before the break.
Molecule,FGF22 binding
OC[C@@H]1[C@H](c2ccc(Br)cc2)[C@@H]2CN(Cc3ccccn3)CCCCN12,i
C[C@H](CO)N1C[C@H](C)[C@H](CN(C)C)Oc2ccc(NC(=O)Nc3cccc4ccccc34)cc2C1=O,i
C[C@@H]1CCCCO[C@@H](CN(C)C(=O)CCC(F)(F)F)[C@@H](C)CN([C@@H](C)CO)C(=O)c2cc(NC(=O)c3ccccc3)ccc2O1,i
O=c1[nH]c(=O)c2ccccc2o1,i
Cc1noc(C)c1S(=O)(=O)N(C)C[C@H]1OCCCC[C@H](C)Oc2ccc(NC(=O)Nc3ccc(C(F)(F)F)cc3)cc2C(=O)N([C@H](C)CO)C[C@@H]1C,i
C[C@H](CO)N1C[C@H](C)[C@H](CN(C)Cc2ccccc2)OCc2ccccc2-c2ccccc2C1=O,i
O=C(C[C@@H]1CC[C@H]2[C@@H](COC[C@H](O)CN2C(=O)Cc2ccccc2)O1)NC1Cc2ccccc2C1,i
O=C(C[C@H]1CC[C@@H](NC(=O)C2CC2)[C@@H](CO)O1)Nc1ccccc1,i
CCC(=O)N(C)C[C@@H]1[C@H](c2ccc(C3=CCCC3)cc2)[C@H](CO)N1C(=O)CC,i
C[C@H](CO)N1C[C@H](C)[C@H](CN(C)Cc2ccc(-c3ccccc3)cc2)Oc2ccc(NS(=O)(=O)c3cn(C)cn3)cc2CC1=O,i
COc1ccc(S(=O)(=O)Nc2ccc3c(c2)C(=O)N([C@@H](C)CO)C[C@@H](C)[C@@H](CN(C)CC2CCCCC2)OCCCC[C@H](C)O3)cc1,i
COc1cccc(-c2ccc3n(c2=O)C[C@H]2[C@H](CO)[C@@H](C(=O)NCC4CC4)N(C(C)=O)[C@@H]32)c1,i
O=C(NC1CCCCC1)N[C@@H]1CC[C@@H](CCNS(=O)(=O)c2ccc(F)cc2)O[C@H]1CO,i
C[C@H](CO)N1C[C@H](C)[C@H](CN(C)Cc2ccc(C(=O)Nc3ccccc3N)cc2)Oc2ccc(NS(=O)(=O)c3cn(C)cn3)cc2C1=O,i
C[C@H](CO)N1C[C@H](C)[C@H](CN(C)CC2CC2)Oc2ccc(NC(=O)Nc3ccc4c(c3)OCO4)cc2CC1=O,i
N#C[C@@H]1[C@@H](c2ccccc2C2=CCCCC2)[C@H](CO)N1S(=O)(=O)c1ccccc1,i
COCC(=O)Nc1ccc2c(c1)OC[C@H](C)N(C(=O)c1ccccc1F)C[C@@H](C)[C@H](OC)CN(C)C2=O,i
CCC(=O)N1CC(=O)N2[C@H](C1)[C@@H](c1ccc(C#Cc3cccnc3)cc1)[C@@H]2CO,i
C[C@H](CO)N1C[C@H](C)[C@@H](CN(C)C(=O)CN(C)C)Oc2cc(-c3ccc(C#N)cc3)ccc2S1(=O)=O,i
O=C(N[C@H]1CC[C@H](CCNS(=O)(=O)c2ccc(F)cc2)O[C@@H]1CO)c1cccnc1,i
CCC(=O)N(C)C[C@H]1Oc2ncc(C#Cc3ccccc3)cc2C(=O)N([C@H](C)CO)C[C@@H]1C,i
COc1cccc(-c2ccc3c(c2)[C@H]2[C@H](CCN2C(=O)Cc2ccncc2)[C@H](CO)N3C)c1,i
O=C(C[C@@H]1CC[C@@H](NC(=O)Nc2ccc3c(c2)OCO3)[C@@H](CO)O1)NCc1ccc2c(c1)OCO2,i
CO[C@H]1CN(C)C(=O)c2ccc(NC(C)=O)cc2OC[C@H](C)N(C(=O)C2CCOCC2)C[C@@H]1C,i
C[C@@H]1CN([C@@H](C)CO)C(=O)c2cc(NS(=O)(=O)c3ccc(Cl)cc3)ccc2O[C@@H](C)CCCCO[C@H]1CN(C)Cc1ccc(C(=O)O)cc1,i
C[C@H]1CCCCO[C@H](CN(C)CC2CC2)[C@@H](C)CN([C@@H](C)CO)C(=O)c2cc(NS(=O)(=O)c3ccc(F)cc3)ccc2O1,i
C[C@@H]1CN([C@@H](C)CO)C(=O)Cc2cc(NS(=O)(=O)c3cn(C)cn3)ccc2O[C@H]1CN(C)CC1CC1,i
COc1ccc(S(=O)(=O)N(C)C[C@H]2Oc3c(NC(=O)C4CC4)cccc3C(=O)N([C@@H](C)CO)C[C@@H]2C)cc1,i
COc1ccc2c3c([nH]c2c1)[C@H](CO)N(C(=O)Nc1ccc(F)cc1)CC31CCN(S(=O)(=O)c2cccc(F)c2)CC1,i
C[C@H](CO)N1C[C@H](C)[C@H](CN(C)C(=O)Nc2ccc(F)cc2)Oc2ccc(N(C)C)cc2CC1=O,i
COc1ccccc1CNC(=O)C[C@@H]1CC[C@@H]2[C@H](COC[C@H](O)CN2Cc2cccc(-c3ccncc3)c2)O1,i
CC(C)NC(=O)Nc1ccc2c(c1)C(=O)N([C@H](C)CO)C[C@H](C)[C@@H](CN(C)C(=O)Nc1ccc(F)cc1)OCCCC[C@H](C)O2,i
COCC#Cc1ccc2c(c1)O[C@H](CN(C)Cc1cccnc1)[C@H](C)CN([C@@H](C)CO)S2(=O)=O,i
O=C(C[C@@H]1C=C[C@H](NC(=O)Nc2cc(F)ccc2F)[C@@H](CO)O1)Nc1ccc(-c2ccccc2)cc1,i
C[C@@H]1CCCCO[C@H](CN(C)C(=O)Nc2cccc3ccccc23)[C@H](C)CN([C@H](C)CO)C(=O)c2cc(NS(=O)(=O)c3cn(C)cn3)ccc2O1,i

> COCC(=O)N1CC[C@@H]2[C@H]1c1cc(-c3ccc(OC)cc3)ccc1N(C)[C@@H]2CO
  FGF22 binding: i

> CN1CCN(C(=O)C[C@H]2CC[C@H]3[C@@H](COC[C@H](O)CN3C(=O)C3CCOCC3)O2)CC1
  FGF22 binding: i

> CN1CCN(C(=O)C[C@@H]2CC[C@@H](NC(=O)Cc3ccccn3)[C@@H](CO)O2)CC1
  FGF22 binding: i

> C/C=C/c1ccc([C@H]2[C@@H](CO)N(CC3CCCC3)C23CN(C(=O)COC)C3)cc1
  FGF22 binding: i

> CCCC#Cc1ccc2c(c1)O[C@@H](CN(C)C(=O)NCCC)[C@@H](C)CN([C@@H](C)CO)S2(=O)=O
  FGF22 binding: i

> COC(=O)C[C@@H]1C[C@@H]2c3cc(NC(=O)C4CCOCC4)ccc3O[C@@H]2[C@H](CO)O1
  FGF22 binding: i

> Cc1ccc(S(=O)(=O)N(C)C[C@H]2Oc3ncc(Br)cc3C(=O)N([C@H](C)CO)C[C@H]2C)cc1
  FGF22 binding: i

> COCC(=O)Nc1ccc2c(c1)C(=O)N(C)C[C@@H](OC)[C@@H](C)CN(Cc1cncnc1)[C@H](C)CO2
  FGF22 binding: i

> Cc1ccccc1-c1cnc2c(c1)C(=O)N([C@@H](C)CO)C[C@@H](C)[C@@H](CN(C)C(=O)CC1CC1)O2
  FGF22 binding: i

> CN1CCN(C(=O)c2cc3c(c(-c4cccc(-c5ccccc5F)c4)n2)[C@@H](CCO)N([S@](=O)C(C)(C)C)C3)CC1
  FGF22 binding: i

> Nc1nc2c(ncn2[C@@H]2O[C@H](C(=O)N[C@@H](Cc3ccccc3)C(=O)NCc3ccc4c(c3)OCO4)[C@@H](O)[C@H]2O)c(=O)[nH]1
  FGF22 binding: i

> O=C(NC1CCC1)[C@@H]1[C@@H](CO)[C@@H]2Cn3c(ccc(-c4ccccc4)c3=O)[C@H]1N2Cc1cocn1
  FGF22 binding: i

> Cc1ccc(S(=O)(=O)Nc2ccc3c(c2)CC(=O)N([C@@H](C)CO)C[C@H](C)[C@H](CN(C)S(=O)(=O)c2ccc(Cl)cc2)O3)cc1
  FGF22 binding: i

> N#C[C@H]1[C@@H](c2ccc(C#CC3CC3)cc2)[C@@H](CO)N1C(=O)Cc1ccccn1
  FGF22 binding: i

> O=C(C[C@H]1CC[C@@H](NC(=O)c2ccc3c(c2)OCO3)[C@@H](CO)O1)NCc1ccc(F)cc1
  FGF22 binding: i

> CN1CCN(C(=O)C[C@@H]2CC[C@@H]3[C@H](COc4ccc(NC(=O)c5cccs5)cc4C(=O)N3C)O2)CC1
  FGF22 binding: i

> O=C(C1CC1)N1CC2(C1)[C@H](c1ccccc1)[C@@H](CO)N2C(=O)c1cccnc1
  FGF22 binding: i

> C[C@@H]1CN([C@@H](C)CO)S(=O)(=O)c2ccc(-c3cncnc3)cc2O[C@H]1CN(C)C(=O)C1CCC1
  FGF22 binding: i

> COc1ccc(S(=O)(=O)N2C[C@@H](O)COC[C@H]3O[C@H](CC(=O)N[C@H]4CCN(Cc5ccccc5)C4)CC[C@@H]32)cc1
  FGF22 binding: i

> C[C@H]1CCCCO[C@H](CN(C)S(C)(=O)=O)[C@@H](C)CN([C@@H](C)CO)C(=O)c2cc(NS(=O)(=O)c3ccccc3)ccc2O1
  FGF22 binding: i

> C[C@@H]1CN([C@@H](C)CO)C(=O)Cc2cc(NC(=O)CCCCCC(=O)Nc3ccccc3N)ccc2O[C@@H]1CN(C)C(=O)NC1CCCCC1
  FGF22 binding: i

# By substructure, the compounds so far with bromine (2)
> OC[C@@H]1[C@H](c2ccc(Br)cc2)[C@@H]2CN(Cc3ccccn3)CCCCN12
  FGF22 binding: i

> Cc1ccc(S(=O)(=O)N(C)C[C@H]2Oc3ncc(Br)cc3C(=O)N([C@H](C)CO)C[C@H]2C)cc1
  FGF22 binding: i
